# Compound activity: PubChem, several laboratories
# PABP FP inh: PABP poly(A) RNA binding inhibitors, primary screen, biochemical, fluorescence polarization, uHTS | Polyadenylate-binding protein 1 (Homo sapiens), P11940 | 1% of 290,000 active | inhibition, % at 35 µM;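 active = 50% or more with normal probe brightness, or confirmed in later tests; inconclusive = above 50% with abnormal brightness, or retests that disagree; inactive = below 50% or failed in later tests; about a fifth of its hits are not listed in these tables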;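 also: calls also rest on retests at 20 µM and on dose response follow-up; controls were probe without protein and protein plus probe with vehicle; some compounds called inactive have numbers as strong as hits; many hits fall short of the cut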
# Target sequence (P11940 whole entry, looked up): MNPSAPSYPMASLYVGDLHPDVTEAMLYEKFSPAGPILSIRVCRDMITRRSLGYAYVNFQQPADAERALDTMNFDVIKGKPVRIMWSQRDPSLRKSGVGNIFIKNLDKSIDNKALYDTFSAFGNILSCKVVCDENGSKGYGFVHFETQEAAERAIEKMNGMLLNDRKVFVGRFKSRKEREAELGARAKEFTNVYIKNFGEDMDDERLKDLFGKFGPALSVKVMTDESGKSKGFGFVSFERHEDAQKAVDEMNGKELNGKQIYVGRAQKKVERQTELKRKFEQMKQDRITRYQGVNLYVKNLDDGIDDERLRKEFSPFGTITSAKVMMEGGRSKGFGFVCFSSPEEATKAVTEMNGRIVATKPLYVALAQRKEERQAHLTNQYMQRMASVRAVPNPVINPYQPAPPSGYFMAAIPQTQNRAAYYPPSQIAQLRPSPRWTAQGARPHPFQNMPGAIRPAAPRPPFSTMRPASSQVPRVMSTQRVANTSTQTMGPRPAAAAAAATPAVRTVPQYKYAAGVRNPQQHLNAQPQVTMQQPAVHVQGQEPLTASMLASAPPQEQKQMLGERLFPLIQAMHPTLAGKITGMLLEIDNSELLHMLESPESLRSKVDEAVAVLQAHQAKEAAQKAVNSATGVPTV
# Yeast UUG start: modulators of yeast start codon fidelity, primary screen, whole organism, S. cerevisiae, single point, plate reader; activity score, % at 18.7 µM; AID 602363, 2012; 0.13% of 350,000 active; S. cerevisiae UUG-firefly luciferase reporter, luminescence/redox ratio;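 active = replicate mean at a twofold rise or more, about +100% in these data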;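 also: firefly luciferase made from a UUG start codon reports start codon fidelity; reporter light over untreated wells divided by growth signal over untreated wells; some hits fall short of that in this replicate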
# eIF4H FP inh: human eIF4H binding inhibitors, primary screen, translation initiation inhibitor project, biochemical, uHTS, fluorescence polarization; Eukaryotic translation initiation factor 4H (Homo sapiens), Q15056; eIF4H fluorescence polarization binding assay; inhibition, % at 35 µM; 0.94% of 290,000 active; AID 2012, 2009;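 active = 50% or more with normal probe brightness, or confirmed in later tests; inconclusive = above 50% with abnormal brightness, or retests that disagree; inactive = below 50% or failed in later tests; about a fifth of its hits are not listed in these tables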;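 also: calls also rest on retests at 20 µM and on dose response follow-up; 0% = protein and probe with vehicle and 100% = probe without protein; strong numbers were not always called active; many hits fall short of the cut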
# MT1-MMP act inh: blockers of MT1-MMP proenzyme processing, primary screen, HT1080 RFP-PRO-GFP cells, GFP/RFP fluorescence | Matrix metalloproteinase-14 (Homo sapiens), P50281 | GFP/RFP ratio fluorescence, overnight; percent of plate control window, DMSO zero | GFP/RFP ratio change, % at 20 µM | 0.061% of 360,000 active | AID 651647, 2012;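 active = GFP/RFP ratio change of at least 30% with cell ATP level not reduced by more than half and red fluorescence within 50% of control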; also: strong numbers were not always called active
#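 Assay system: HT1080 cells carrying an RFP-PRO-GFP reporter | Dosing: Single dose of 20 µM compound, 1% DMSO final | Incubation: Cells overnight before dosing, compound overnight, 37 °C, 5% CO2 | Evaluation: GFP/RFP fluorescence ratio | Control set: DMSO and RFP-L50D-GFP cell wells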
# CSC inhib: cancer stem cell viability inhibitors, primary screen, luminescence; 1.1% of 300,000 active; inhibition, % at 7.5 µM; cancer stem cell-like cells viability;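 active = mean at 75% or more and at least half the replicates too; inconclusive = mean and replicates disagree; tested in HMLE shEcad cells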;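 also: 0% = median of negative and 100% = median of positive control wells; the first replicate is given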
# Rce1 inh: yeast Rce1p protease inhibitors, primary screen, biochemical, fluorescence, cell-free homogeneous. 0.27% of 290,000 active. CAAX prenyl protease 2 (Saccharomyces cerevisiae (strain ATCC 204508 / S288c)), Q03530. calls only. yeast membranes, quenched prenylated peptide cleavage fluorescence. AID 2563, 2010;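 active = fall in fluorescence gain of 50% or more versus controls, with final raw signal at or below 3038400; inconclusive = same 50% fall but final raw signal above 3038400; inactive = fall in fluorescence gain under 50%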;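 also: plate controls were neutral control wells for no effect and wells lacking membranes for full effect; tested at 10 µM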
# Target sequence (Q03530 whole entry, looked up): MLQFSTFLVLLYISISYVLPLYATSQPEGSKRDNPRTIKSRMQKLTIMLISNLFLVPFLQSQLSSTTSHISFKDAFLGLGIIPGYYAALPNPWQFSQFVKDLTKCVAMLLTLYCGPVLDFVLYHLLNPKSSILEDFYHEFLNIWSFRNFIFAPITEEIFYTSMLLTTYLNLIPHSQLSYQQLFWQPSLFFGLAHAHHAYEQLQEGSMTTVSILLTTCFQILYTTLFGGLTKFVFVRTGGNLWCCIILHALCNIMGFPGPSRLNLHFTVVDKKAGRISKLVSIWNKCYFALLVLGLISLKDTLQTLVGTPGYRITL
# Env fusion inh: inhibitors of HIV-1 Env-driven cell-cell fusion, primary screen, HeLa-JRFL effector, CEM21 target cells, luciferase. inhibition, % at 12.3 µM. 1.1% of 360,000 active;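 active = mean replicate inhibition score of at least 50 and every replicate individually at or above 50; inconclusive = only one of the two criteria met; inactive = mean below 50 and not all replicates reaching 50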;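 also: 0% = plate neutral controls and 100% = maraviroc near 300 nM; one replicate is shown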
# eIF4H FP inh retest: also measured in eIF4H FP inh; calls as there; inhibition, %; compound at 20 µM; confirmation average;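 mean of two retest wells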
# PABP FP inh retest: further read-out of PABP FP inh, marked with its call; inhibition, %; compound at 20 µM; confirmation repeats;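 mean of two retest wells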
# MT1-MMP act inh RFP: recorded beside MT1-MMP act inh, whose call it bears; RFP signal change, %; measured here: RFP expression control read;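 0 = vehicle wells; hits needed this value within 50% of zero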
# Numbers without * were called inactive; i = inactive; ? = inconclusive; / = no result given; & = joins results of further samples.
SMILES,PABP FP inh,Yeast UUG start,eIF4H FP inh,MT1-MMP act inh,MT1-MMP act inh RFP,CSC inhib,Rce1 inh,Env fusion inh,others
COc1ccc(OC)c(NC(=O)CSc2nnc(CNC(=O)c3ccco3)o2)c1,-5,-8,-8,-4,3,7,i,-6,
CCCS(=O)(=O)C(=C(Nc1ccccc1)Nc1ccccc1)S(=O)(=O)CCC,10,/,3,8,0,-17,i,1,
CN(C)S(=O)(=O)c1cccc(C(=O)c2nccn2C)c1,2,/,8,0,4,-20,i,0,
COc1ccc(F)cc1S(=O)(=O)N1CCC(C(N)=O)CC1,-4,2,-2,-5,3,-8,i,/,
CCCCN(C)C(=O)c1ccc(Nc2nc(C(N)Cc3ccc(C(F)(F)F)cc3)cs2)nc1 (stereo not given),/,-17,/,-6,-6,/,/,2,
CSc1ccccc1NS(=O)(=O)c1cccc2nonc12,6,-17,13,-3,0,7,i,-10,
COc1ccc(Nc2nc(Nc3ccc(OC)cc3)nc(-n3[nH]c(=O)c(C)c3C)n2)cc1,14,-17,19,6,4,9,i,-183,
Cc1ccc2nc(NC(=O)c3ccc4c(c3)OCO4)sc2c1,10,-12,-1,5,-5,/,i,/,
CC(=O)c1c(C)[nH]c(C(=O)OCCOc2ccccc2)c1C,?,/,-5,-6,-28,15,i,-11,
Cc1cccc(C(=O)Nc2ccc(Oc3cnccn3)cc2)c1,4,-18,-11,2,3,-9,i,-7,
CC(C)(C)c1ccc(C(=O)NCC(=O)OCC(=O)Nc2nc(-c3ccc(F)cc3)cs2)cc1,-8,/,-2,0,-4,-7,i,-36,
CC(=O)Nc1ccc(NC(=O)CSc2nnnn2C2CCCCC2)cc1,/,-7,/,-6,-4,-10,i,-6,
O=C(NC(=S)Nc1cccc(NC(=O)c2ccc(Cl)cc2Cl)c1)c1cccs1,-2,-11,6,3,-4,-2,i,/,
Cc1cc(C)c(-c2cc(C(F)(F)F)no2)c(=O)[nH]1,2,/,-1,3,3,-8,i,/,
O=C(CN1C(=O)c2ccccc2S1(=O)=O)N1CCc2ccccc2C1,-3,-13,-2,-2,7,-11,i,/,
O=C(NC1CC(=O)N(c2ccc(F)cc2)C1)N1CCN(C(=O)c2ccco2)CC1 (stereo not given),/,-9,/,1,3,-13,i,-20,
CCCc1cc(C(=O)N2CCN(c3ccccc3C)CC2)cs1,8,6,-7,-1,-3,0,i,16,
O=C1NC[C@@H](Cc2cccc3ccccc23)N(CC2CCCCC2)C1=O,-4,2,6,6,0,-14,i,6,
Clc1ncnc2scc(C3COc4ccccc4O3)c12 (stereo not given),8,-13,6,-2,3,-5,i,-22,
CCOC(=O)Cc1csc(SCC(=O)c2c(N)n(CC(C)C)c(=O)n(C)c2=O)n1,-1,-7,8,1,-10,5,i,44,
CC(=O)Oc1ccc(C(=O)Nc2ccccc2C(=O)N2CCCC2)cc1,0,-3,-3,0,2,-1,i,-5,
O=C(CCc1ccccc1)Nc1cccc(S(=O)(=O)N2CCOCC2)c1,/,-2,/,-1,-1,-8,/,-27,
Cc1nnc(SCC(=O)Nc2nnc(-c3ccccc3)o2)s1,/,/,/,2,0,-7,i,-15,
CCOc1ccc(-c2nc(C#N)c(N3CCN(CC)CC3)o2)cc1,4,-12,1,0,-3,-7,i,-12,
CCCC1CCC(=NNC(=O)CNc2ccc(OC)cc2)CC1 (stereo not given),-5,/,23,-1,-7,-5,i,1,
O=C(NCc1ccc(Cl)c(Cl)c1)C1CCCC1,/,-12,/,-1,1,12,/,7,
CCN(CCCNC(=O)C1CCN(S(=O)(=O)c2cnc[nH]2)CC1)c1cccc(C)c1,9,-17,-2,-4,1,-12,i,-20,
O=c1c2[nH]c3ccc(F)cc3c2nc2n1CCS2,3,/,-1,7,2,9,i,-1,
O=C(NC1CCN(Cc2ccccc2)CC1)c1cccc(OC(F)F)c1,5,-13,2,1,1,-1,i,-8,
CC1CC(C)CN(CC(=O)Nc2cc(S(=O)(=O)N3CCOCC3)ccc2N2CCCC2)C1 (stereo not given),/,7,/,-3,1,/,/,-3,
O=C(CN(Cc1ccccc1)C(=O)c1csnn1)NCCc1ccccc1,8,-9,0,0,0,6,i,3,
O=C(/C(=C(\O)c1ccccc1)c1nc2ccccc2[nH]1)c1ccccc1,10,-8,2,8,2,/,i,-3,
CC(C)(C)[C@H]1COC(=O)[C@@H](NC(=O)OCC2c3ccccc3-c3ccccc32)C/C=C\C[C@@H](CC(=O)N[C@@H](CO)Cc2ccccc2)C(=O)N1,/,-9,/,5,0,/,/,4,
Cc1ccc(OCC(=O)N2CCN(C3=NS(=O)(=O)c4ccccc43)CC2)cc1,-6,6,-12,3,2,/,i,8,
CCCNS(=O)(=O)c1ccc(OCC(=O)NCCC2=CCCCC2)cc1,-8,9,1,3,0,-5,i,/,
Cc1nn(-c2ccccc2)nc1C(=O)Oc1cc(C(F)(F)F)nn1-c1ccccc1,4,/,-4,5,1,7,/,12,
Cc1cccc(CCNC(=O)c2cc(S(=O)(=O)N3CCOCC3)cn2C)c1,1,-5,-3,0,5,-15,i,13,
Cc1cc(C)c(S(=O)(=O)c2ccccc2)c(OC(=O)c2c(F)cccc2F)n1,4,/,-2,-1,5,-7,i,-23,
Cc1cc2cc(CN3C(=O)c4ccccc4C3=O)ccc2n1C,10,/,94,32*,35*,19,/,-1,eIF4H FP inh retest=-3;PABP FP inh retest=6
CC1CC(C)CN(C(=O)COC(=O)COc2ccc(C#N)cc2)C1 (stereo not given),/,3,/,4,3,12,/,-47,
Cc1cc(/C=C2/NC(=O)NC2=O)c(C)n1-c1sc2c(c1C#N)CCCC2,-2,-13,-2,5,5,-6,i,/,
C=CCc1cc(OC)ccc1OCCON1C(=O)CCC1=O,-2,0,5,0,1,-12,i,/,
O=C(CN(c1ccc(F)cc1)S(=O)(=O)c1ccccc1)Nc1ccccc1C(=O)O,12,/,-6,-4,-2,6,i,-5,
CCN=C1SC(CC(=O)NC2CCCCC2)C(=O)N1CC (stereo not given),-3,-15,-2,1,-1,-15,i,-5,
CCOc1ccc(S(=O)(=O)NCCC(=O)N2CC=C(c3ccccc3)CC2)cc1,/,-7,/,1,-15,-4,/,?,
OC(Cc1cccc(Br)c1)c1ncc(-c2ccccc2C(F)(F)F)[nH]1 (stereo not given),/,-24,/,-3,-1,/,/,-9,
CNC(=O)COC(=O)/C=C/c1cn(-c2ccccc2)nc1-c1ccc2c(c1)OCCO2,3,/,-7,-1,-2,8,i,-38,
COc1ccc(NC(=O)CC(c2ccc(F)cc2)c2ccc(OC)cc2)cc1 (stereo not given),0,/,-11,-3,-7,/,i,-7,
COCCNS(=O)(=O)c1cc(C)c(C)cc1C,6,/,-2,5,8,-12,i,-33,
COc1ccc(NC(=O)CCCn2c(=O)oc3ccccc32)cc1Cl,22,/,-11,4,-2,-1,i,-17,
CCCCCCOC(=O)CC1CC(C(C)=O)C1(C)C (stereo not given),/,-12,/,-1,3,/,/,-28,
O=C(NCCCO)c1cc([N+](=O)[O-])cc2c1C=Cc1ccccc1O2,-8,-5,4,-3,-2,-8,i,-8,
CC(=O)Nc1ccc(Nc2nc(-c3sc(NC(C)=O)nc3C)cs2)cc1,14,-19,1,-6,-6,2,i,-8,
S=C1NCN(Cc2cccnc2)CN1Cc1ccccc1,-3,/,3,1,-2,-2,i,-11,
O=C(N/C(=C/c1ccco1)C(=O)N1CCCCCC1)c1ccccc1,4,-10,3,-4,2,-18,i,14,
Cc1cccc(N2CCN(C(=O)CCCSc3nc4ccccc4[nH]3)CC2)c1C,5,-13,4,-1,-15,-6,i,74*,
CC(=O)C(C(C)=O)C1(O)C(=O)c2ccccc2C1=O,10,-36,-3,0,6,-16,i,/,
O=c1oc(-c2cccnc2)nc2ccccc12,-6,10,5,2,1,14,i,/,
CCCCCCCCn1cnc2c(N)c(C)c(C)cc21,5,-22,3,-11,-10,/,i,/,
COc1cc(C(=O)N/N=C/c2ccc(OC(=O)c3cccc(C)c3)c(OC)c2)ccc1O,8,-6,-16,5,0,-2,i,-3,

# Next section:
SMILES,PABP FP inh,Yeast UUG start,eIF4H FP inh,MT1-MMP act inh,MT1-MMP act inh RFP,CSC inhib,Rce1 inh,Env fusion inh,others
CCC/C=N/NC(=O)c1cc(-c2ccccc2)nc2ccccc12,7,/,6,1,1,6,i,40,
COCCN(C(=O)CSc1nnc(-c2ccc(Cl)cc2)o1)c1c(N)n(CC(C)C)c(=O)[nH]c1=O,6,1,5,-2,0,-1,i,-30,
C=CCn1c(SCC(=O)NC(=O)NC)nnc1C1CCCCC1,4,/,0,1,2,3,i,10,
COc1cccc(/C=C2\SC(=S)N(CCCC(=O)NC3=NCCS3)C2=O)c1,23*,-26,80,-3,2,14,i,13,eIF4H FP inh retest=17;PABP FP inh retest=115*
CC(=O)Nc1ccc(NC(=O)CSc2nc3c([nH]c4ccccc43)c(=O)n2-c2ccccc2F)cc1,-9,-1,0,-8,-3,6,i,-45,
C[C@H]1CN([C@@H](C)CO)C(=O)c2cccc(NS(=O)(=O)c3ccc(F)cc3)c2O[C@H]1CN(C)Cc1ccc(Cl)c(Cl)c1,/,-10&5,/,-5,-1,29,/,-35,
Cc1cccc(-n2c(=S)[nH]c3sc4c(c3c2=O)CCc2ccccc2-4)c1,1,/,10,-5,-4,/,i,12,
O=C(NNC(=O)c1ccccc1F)c1cccs1,4,15,2,3,4,/,i,-40,
Cc1ccc(C(=O)N2CCCC(Nc3cccc(F)c3)C2)cc1N1CCNC1=O (stereo not given),-7,-8,5,2,2,-10,/,9,
COc1ccc(NS(=O)(=O)c2ccc(C(=O)N3CCN(Cc4ccccc4)CC3)cc2)cc1,-13,/,-8,1,-19,-6,i,28,
COc1ccc(C(=O)N2CCC(O)(c3ccc(Cl)cc3)CC2)cc1OC,-13,/,5,6,3,-5,i,3,
CCOC(=O)C1=CN(Cc2cccc(F)c2)S(=O)(=O)N(C)C1CCc1ccccc1 (stereo not given),/,-21,/,-2,-11,/,/,25,
CS(=O)(=O)Nc1cccc(NC(=O)c2ccc(-c3ccc(F)c(F)c3)c3ccoc23)c1,/,9,/,1,-10,/,/,-12,
Cc1nc(-c2ccccc2)cs1,7,-13,-6,0,-1,-45,i,-27,
CC1=CC(=NNS(=O)(=O)c2ccc([N+](=O)[O-])cc2)CC(C)(C)C1,/,0,/,8,-3,/,/,18,
Cc1ccc(CNC(=O)CCS(=O)(=O)c2cc(Br)cc3c2N(C(=O)C2CC2)CC3)o1,24,1,-4,2,3,9,i,/,
Nc1nc(Nc2cccc(F)c2)nc(NCc2ccco2)c1[N+](=O)[O-],5,-16,-6,-3,-12,37,/,10,
O=C(CSCc1ccccc1)N1CCc2ccccc21,2,-32,2,3,1,3,i,-157,
CN1CCN(C(CNC(=O)C(=O)NC2CCCCC2)c2ccc(F)cc2)CC1 (stereo not given),/,-3,/,0,0,/,i,1,
